MenB inh: M. tuberculosis MenB inhibitors, primary screen, biochemical, absorbance; 1,4-dihydroxy-2-naphthoyl-CoA synthase (Mycobacterium tuberculosis (strain ATCC 25618 / …; MenB enzyme assay, absorbance read-out; some hits fall short of the stated cut; inhibition, %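 (about 12 µg/mL by stock and volumes)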; 100,000 tested, 0.43% active; AID 540299, 2011;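 active = mean of two replicates above 30%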;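 also: 0% = no compound and 100% = wells with inactive enzyme; the first replicate is given; strong numbers were not always called active; inactives centre near -10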
Target sequence (P9WNP5 whole entry, looked up): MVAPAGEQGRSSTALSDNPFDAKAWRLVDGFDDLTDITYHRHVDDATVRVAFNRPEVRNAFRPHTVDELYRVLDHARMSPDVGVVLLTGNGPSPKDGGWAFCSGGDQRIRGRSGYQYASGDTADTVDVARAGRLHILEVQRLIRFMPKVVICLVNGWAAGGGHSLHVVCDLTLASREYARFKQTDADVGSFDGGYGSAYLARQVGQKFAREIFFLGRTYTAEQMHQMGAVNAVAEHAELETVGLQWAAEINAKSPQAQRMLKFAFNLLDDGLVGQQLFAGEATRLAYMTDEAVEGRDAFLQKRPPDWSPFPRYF
Polio RdRp inh: poliovirus RdRp elongation inhibitors, primary screen, biochemical, fluorescence polarization, total intensity; Genome polyprotein (Poliovirus type 1 (strain Mahoney)), P03300; % elongation, % (compound at 16.7 µg/mL); poliovirus polymerase elongation; active compounds read low; 150,000 tested, 0.66% active; in the data active = % elongation below about 90%; also: some results filed as inactive read as strong as hits
Target sequence (P03300 1749-2209 limits assumed): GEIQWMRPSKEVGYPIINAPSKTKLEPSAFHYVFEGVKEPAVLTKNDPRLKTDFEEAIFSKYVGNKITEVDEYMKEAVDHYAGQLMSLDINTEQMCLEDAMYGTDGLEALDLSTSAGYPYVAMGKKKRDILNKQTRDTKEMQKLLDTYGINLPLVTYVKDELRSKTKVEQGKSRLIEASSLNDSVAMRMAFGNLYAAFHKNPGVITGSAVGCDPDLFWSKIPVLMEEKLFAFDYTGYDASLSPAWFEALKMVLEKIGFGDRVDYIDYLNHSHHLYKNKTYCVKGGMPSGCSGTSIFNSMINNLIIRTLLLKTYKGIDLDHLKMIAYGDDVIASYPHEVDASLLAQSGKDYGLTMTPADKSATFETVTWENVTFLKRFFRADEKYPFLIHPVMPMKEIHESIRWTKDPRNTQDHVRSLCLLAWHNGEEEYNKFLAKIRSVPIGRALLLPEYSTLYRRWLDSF
MbtI inh: MbtI salicylate synthase inhibitors, primary screen, biochemical, fluorescence intensity | AID 493033, 2011 | 100,000 tested, 0.89% active | P9WFX0 | inhibition, %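 (about 17 µg/mL by stock and volumes)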 | purified MbtI enzyme, fluorescence intensity read-out;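 active = above 50% in both replicates, above 80% if mildly self-fluorescent; inactive = the rest, strongly fluorescent compounds included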;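 also: 0% = mean of negative and 100% = mean of positive controls; one replicate is shown; some compounds called inactive have numbers as strong as hits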
Polio RdRp inh intensity: also measured in Polio RdRp inh; calls as there; % elongation; measured here: total intensity read-out; formula for this scale not given here;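 total fluorescence in place of polarization; lower means less elongation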
* = called active by the depositor. Rows were taken by chance; 1.7% or so of the library scored in one or more.

For COC(=O)c1ccc2c(=O)n(CCO)c(SCCOc3ccccc3C)nc2c1 the results were MenB inh -9 and MbtI inh -1.
For Cc1ccc(Oc2ncnc3sccc23)cc1 the results were MenB inh -7, Polio RdRp inh 100, MbtI inh -2 and Polio RdRp inh intensity 98.
O=C(NCc1ccc(F)cc1)C1CC(=O)N(Cc2cnn(-c3ccccc3)c2-n2cccc2)C1 (configuration not stated) was read as MenB inh -7, Polio RdRp inh 100, MbtI inh -4 and Polio RdRp inh intensity 103.
For C=CCN1C(=O)C2C(C(=O)NC3CCCCC3C)C3(C)C=CC2(O3)C1C(=O)NC(C)(C)C (configuration not stated) the results were MenB inh -13, Polio RdRp inh 102, MbtI inh 3 and Polio RdRp inh intensity 102.
For CN(CC(=O)N1CCc2ccccc21)c1ccccc1 the results were Polio RdRp inh 102, MbtI inh -1 and Polio RdRp inh intensity 96.
For CNC(=O)c1ccc2c(c1)NC(=O)c1ccccc1S2 the results were MenB inh 4, Polio RdRp inh 101, MbtI inh 16 and Polio RdRp inh intensity 103.
Screening CCCC(CCC)C(=O)Nc1cc(C)c2c(=O)oc3ccccc3c2n1 returned MenB inh 7, Polio RdRp inh 100, MbtI inh 2 and Polio RdRp inh intensity 101.
COc1ccc(NC(=O)Cn2ncc3ccccc32)cc1OC was read as MenB inh 17, Polio RdRp inh 100, MbtI inh 3 and Polio RdRp inh intensity 101.
`O=C(Nc1ccc(-c2cn3cccnc3n2)cc1)c1ccco1` gave MenB inh -25, Polio RdRp inh 99, MbtI inh 9 and Polio RdRp inh intensity 100.
CC(C)N=c1scc(-c2ccco2)n1/N=C/c1ccccc1O was read as MenB inh -77, Polio RdRp inh 102, MbtI inh -4 and Polio RdRp inh intensity 99.
`O=C(Oc1ccccc1)c1ccc(=O)oc1` gave MenB inh -10, Polio RdRp inh 97, MbtI inh -1 and Polio RdRp inh intensity 105.
Screening CNC1CCCc2ccccc21 (configuration not stated) returned MenB inh 5, Polio RdRp inh 107, MbtI inh -3 and Polio RdRp inh intensity 154.
O=C(Nc1nnc(C2=COCCO2)o1)c1ccc(Cl)cc1 was read as MenB inh -33, Polio RdRp inh 102, MbtI inh 19 and Polio RdRp inh intensity 106.
C=CCSc1nnc(NC(=O)c2ccc(S(=O)(=O)N3CCCCC3)cc2)s1 was read as MenB inh -2, Polio RdRp inh 104, MbtI inh -7 and Polio RdRp inh intensity 104.
Screening S=C(c1cn(CCOc2ccccc2)c2ccccc12)N1CCCC1 returned MenB inh -35, Polio RdRp inh 102, MbtI inh 4 and Polio RdRp inh intensity 105.
Cc1cc2c(C(C)C)c(O)c(O)c(C=O)c2c(O)c1-c1c(C)cc2c(C(C)C)c(O)c(O)c(C=O)c2c1O was read as MenB inh 0, Polio RdRp inh 99, MbtI inh 48 and Polio RdRp inh intensity 102.
Screening c1ccc(-c2ncc(CN3CCN(c4ccccn4)CC3)[nH]2)cc1 returned MenB inh 6, Polio RdRp inh 107, MbtI inh -6 and Polio RdRp inh intensity 112.
CCCCN(C(=O)c1ccc2c(c1)OCO2)C1CCS(=O)(=O)C1 (configuration not stated) was read as MenB inh -27, Polio RdRp inh 102, MbtI inh -11 and Polio RdRp inh intensity 106.
For CCOc1cc(C=C2C(=O)NC(=O)NC2=O)cc(Cl)c1O the results were MenB inh -54, Polio RdRp inh 79, MbtI inh 33 and Polio RdRp inh intensity 124.
Screening O=C(O)/C=C\C(=O)NCc1ccco1 returned MenB inh -17, Polio RdRp inh 97, MbtI inh 9 and Polio RdRp inh intensity 99.
`CC(=O)N(C)c1ccc(NC(=O)C23CC4CC(C2)CC(n2cnc(Cl)n2)(C4)C3)cc1` gave MenB inh -2, Polio RdRp inh 103, MbtI inh -9 and Polio RdRp inh intensity 101.
`Cc1noc(C)c1COc1ccc(C(=O)OCC(=O)N2CCc3ccccc3C2)cc1` gave MenB inh -23, Polio RdRp inh 104, MbtI inh 3 and Polio RdRp inh intensity 105.
For CCCC(=N)C1=C(O)CC(CC(C)SCC)CC1=O (configuration not stated) the results were MenB inh -56, Polio RdRp inh 100, MbtI inh -12 and Polio RdRp inh intensity 102.
Screening Clc1ccc2oc(Nc3ccc4oc5ccccc5c4c3)nc2c1 returned MenB inh 4, Polio RdRp inh 106, MbtI inh 15 and Polio RdRp inh intensity 92.
Screening CS(=O)(=O)Nc1ccc(OC(F)(F)F)cc1 returned MenB inh -2, Polio RdRp inh 103, MbtI inh 4 and Polio RdRp inh intensity 102.
Cc1nn2c(COc3ccc(NC(=O)c4ccco4)cc3)nnc2c2ccccc12 was read as MenB inh -26, Polio RdRp inh 102, MbtI inh -13 and Polio RdRp inh intensity 100.
`CN(C)CCN(C)CC1CC=CCC1` (configuration not stated) gave MenB inh -10, Polio RdRp inh 99, MbtI inh 2 and Polio RdRp inh intensity 103.
COc1ccccc1-c1nnc(C2CCN(C(=O)c3ccc(F)cc3)CC2)o1 was read as MenB inh -15, Polio RdRp inh 100, MbtI inh 9 and Polio RdRp inh intensity 101.
Screening COc1ccc(C(CC(=O)NCc2ccc3c(c2)OCO3)n2cccc2)cc1 (configuration not stated) returned MenB inh -18, Polio RdRp inh 102, MbtI inh -11 and Polio RdRp inh intensity 104.
For CCOC(CNc1ccc2nnc(-c3ccccc3)n2n1)OCC the results were MenB inh 3, Polio RdRp inh 100, MbtI inh -11 and Polio RdRp inh intensity 93.
`N#Cc1cc(F)c(N2CCCC2)cc1Cl` gave MenB inh 17, Polio RdRp inh 100, MbtI inh 4 and Polio RdRp inh intensity 103.
COCCNC(=O)Cn1cc(C(=O)C(F)(F)F)c2ccccc21 was read as MenB inh -22, Polio RdRp inh 100, MbtI inh -6 and Polio RdRp inh intensity 100.
For CCCCC1(C)OC(=O)C(=Cc2ccc(N(C)C)cc2)C(=O)O1 (configuration not stated) the results were MenB inh -26, Polio RdRp inh 100, MbtI inh -1 and Polio RdRp inh intensity 102.
For O=C(N/N=C/c1ccc(O)c(O)c1O)c1ccc(CSc2nc3ccccc3o2)cc1 the results were MenB inh -114, Polio RdRp inh 107, MbtI inh 9 and Polio RdRp inh intensity 110.
For CCCn1nc(-c2nnc(-c3ccc(C)c(C)c3)o2)c2ccccc2c1=O the results were MenB inh -17, Polio RdRp inh 100, MbtI inh -23 and Polio RdRp inh intensity 108.
For Cc1[nH]n(-c2ccc(Cl)cc2)c(=O)c1C=O the results were MenB inh 5, Polio RdRp inh 100, MbtI inh 71* and Polio RdRp inh intensity 102.
`CCN(CC)CCNC1=NCCn2c1cc1cc(OC)ccc12` gave MenB inh 1, Polio RdRp inh 97, MbtI inh -7 and Polio RdRp inh intensity 93.
Screening CCCCc1[nH]nc2c1C1(CCCCC1)C(C#N)=C(N)O2 returned MenB inh -28, Polio RdRp inh 107 and Polio RdRp inh intensity 110.
Screening COc1ccc2c(c1)CCC(C)N2S(=O)(=O)c1ccc(C2CNC(=O)C2)cc1 (configuration not stated) returned MenB inh -13, Polio RdRp inh 102, MbtI inh -1 and Polio RdRp inh intensity 101.
`CC(=O)N/C(=C/c1ccccc1)C(=O)Nc1ccc(I)cc1` gave MenB inh -19, Polio RdRp inh 108 and Polio RdRp inh intensity 112.
Clc1ccccc1N1CCN(CC2CC=CCC2)CC1 (configuration not stated) was read as MenB inh -18, Polio RdRp inh 99, MbtI inh -6 and Polio RdRp inh intensity 100.
For CCO/N=C(/N)c1[nH]ncc1Br the results were MenB inh 3, Polio RdRp inh 104, MbtI inh -1 and Polio RdRp inh intensity 103.
Screening Cc1oc(C(C)(C)C)cc1C(=O)N1CCN(C(c2ccccc2)c2ccccc2)CC1 returned MenB inh -13, Polio RdRp inh 103, MbtI inh -4 and Polio RdRp inh intensity 100.
COc1ccc(N2CCN(CCCNC(=O)C3CCC(=O)N3Cc3ccc(F)cc3)CC2)cc1 (configuration not stated) was read as MenB inh -10, Polio RdRp inh 100, MbtI inh -18 and Polio RdRp inh intensity 103.
`c1ccc(CCCN2CCNCC2)cc1` gave MenB inh -6, Polio RdRp inh 105 and Polio RdRp inh intensity 105.

5 structures out of the list, ordered by SMILES length, low to high:
`N#Cc1cc(F)c(N2CCCC2)cc1Cl` gave MenB inh 17, Polio RdRp inh 100, MbtI inh 4 and Polio RdRp inh intensity 103.
Clc1ccccc1N1CCN(CC2CC=CCC2)CC1 (configuration not stated) was read as MenB inh -18, Polio RdRp inh 99, MbtI inh -6 and Polio RdRp inh intensity 100.
For Cc1[nH]n(-c2ccc(Cl)cc2)c(=O)c1C=O the results were MenB inh 5, Polio RdRp inh 100, MbtI inh 71* and Polio RdRp inh intensity 102.
For O=C(N/N=C/c1ccc(O)c(O)c1O)c1ccc(CSc2nc3ccccc3o2)cc1 the results were MenB inh -114, Polio RdRp inh 107, MbtI inh 9 and Polio RdRp inh intensity 110.
COc1ccc(N2CCN(CCCNC(=O)C3CCC(=O)N3Cc3ccc(F)cc3)CC2)cc1 (configuration not stated) was read as MenB inh -10, Polio RdRp inh 100, MbtI inh -18 and Polio RdRp inh intensity 103.

Of the compounds above, 2 contain a CF3 group:
Screening CS(=O)(=O)Nc1ccc(OC(F)(F)F)cc1 returned MenB inh -2, Polio RdRp inh 103, MbtI inh 4 and Polio RdRp inh intensity 102.
COCCNC(=O)Cn1cc(C(=O)C(F)(F)F)c2ccccc21 was read as MenB inh -22, Polio RdRp inh 100, MbtI inh -6 and Polio RdRp inh intensity 100.

Carrying on:
`O=C(Nc1cccnc1)c1c(O)c2ccccc2[nH]c1=O` gave MenB inh -26, Polio RdRp inh 102, MbtI inh inactive and Polio RdRp inh intensity 97.
`NS(=O)(=O)c1cccc(S(=O)(=O)c2ccc(Cl)c(Cl)c2)c1` gave MenB inh 1, Polio RdRp inh 99, MbtI inh 67* and Polio RdRp inh intensity 102.
Cc1ccc(C=Nc2ccc(Oc3ccccc3)cc2)s1 was read as MenB inh -15, Polio RdRp inh 106 and Polio RdRp inh intensity 104.
Cc1nc(NC2=NCCC(=O)N2)nc2ccccc12 was read as MenB inh 9, Polio RdRp inh 101 and Polio RdRp inh intensity 112.
For CC(=O)Nc1ccc(C(=O)OCC(=O)N2CCCC2)cc1 the results were Polio RdRp inh 100, MbtI inh -2 and Polio RdRp inh intensity 103.
NC(=O)Cn1cnc2c(nnn2Cc2ccccc2)c1=O was read as MenB inh 8, Polio RdRp inh 100, MbtI inh 13 and Polio RdRp inh intensity 101.
For CCN(CC)c1ccc(NC(=O)c2cccs2)c(N(CC)CC)n1 the results were MenB inh -23, Polio RdRp inh 101, MbtI inh 8 and Polio RdRp inh intensity 106.
CC(=O)N(Cc1ccccc1)c1ccccc1C(=O)O was read as Polio RdRp inh 104, MbtI inh -4 and Polio RdRp inh intensity 102.
Screening CC(C)(C)C(=O)Nc1nnc(SCC(N)=O)s1 returned MenB inh 7, Polio RdRp inh 99, MbtI inh 14 and Polio RdRp inh intensity 96.
Screening CCCCCN(CCCCC)C(=O)C(CCC(=O)O)NC(=O)c1ccc(Cl)c(Cl)c1 (configuration not stated) returned MenB inh -9, Polio RdRp inh 100, MbtI inh -14 and Polio RdRp inh intensity 101.
Screening O=c1cc(CO)oc(C(Nc2cccc(Cl)c2)c2ccccn2)c1O (configuration not stated) returned MenB inh -80, Polio RdRp inh 107, MbtI inh 11 and Polio RdRp inh intensity 112.
Screening S=C(Nc1ccccc1)N1CCN(c2ccc3nnc(-c4ccccc4)n3n2)CC1 returned MenB inh -6, Polio RdRp inh 100, MbtI inh 41 and Polio RdRp inh intensity 105.
O=C(NCCOc1ccccc1)C1CCN(c2ncc(C(F)(F)F)cc2Cl)CC1 was read as MenB inh -23, Polio RdRp inh 102, MbtI inh -8 and Polio RdRp inh intensity 97.
`O=S1(=O)CC(S(=O)(=O)c2ccccc2)C(S(=O)(=O)c2ccccc2)C1` (configuration not stated) gave MenB inh 0, Polio RdRp inh 102, MbtI inh -7 and Polio RdRp inh intensity 101.
For O=C(CCC(=O)N1CCOCC1)Nc1c(F)c(F)nc(N2CCOCC2)c1F the results were MenB inh 2, Polio RdRp inh 102, MbtI inh 195 and Polio RdRp inh intensity 105.
CN=c1scc(-c2cccs2)n1/N=C/c1ccc[nH]1 was read as MenB inh -20, Polio RdRp inh 114, MbtI inh -7 and Polio RdRp inh intensity 109.
Screening Cc1ccc(CCNC(=O)c2nnc(CS(=O)(=O)c3ccccc3)o2)cc1 returned MenB inh -5, Polio RdRp inh 97, MbtI inh 9 and Polio RdRp inh intensity 102.
`c1ccc(CN2CCC(c3ccco3)=N2)cc1` gave MenB inh -12, Polio RdRp inh 99, MbtI inh -10 and Polio RdRp inh intensity 107.
`COc1ccccc1OCc1ccoc1C(=O)O` gave MenB inh 2, Polio RdRp inh 101, MbtI inh -4 and Polio RdRp inh intensity 103.

Source: PubChem BioAssay
